# KAT2A inh – inhibitors of human GCN5L2 histone acetyltransferase. GCN5L2 HAT assay, ThioGlo1 CoA-SH fluorescence. Potency, µM (series often up to 58.9 µM), without a hit: at the top dose activity change, negative = inhibition, actives largely listed as inhibitors. 0.21% of 390,000 active; active = well fitted inhibition curve with a large enough effect; inconclusive = small, poorly fitted or top-dose-only effect, or another doubt; inactive = no such curve, though single readings can be large or run the other way
# Target sequence (Q92830 whole entry, looked up): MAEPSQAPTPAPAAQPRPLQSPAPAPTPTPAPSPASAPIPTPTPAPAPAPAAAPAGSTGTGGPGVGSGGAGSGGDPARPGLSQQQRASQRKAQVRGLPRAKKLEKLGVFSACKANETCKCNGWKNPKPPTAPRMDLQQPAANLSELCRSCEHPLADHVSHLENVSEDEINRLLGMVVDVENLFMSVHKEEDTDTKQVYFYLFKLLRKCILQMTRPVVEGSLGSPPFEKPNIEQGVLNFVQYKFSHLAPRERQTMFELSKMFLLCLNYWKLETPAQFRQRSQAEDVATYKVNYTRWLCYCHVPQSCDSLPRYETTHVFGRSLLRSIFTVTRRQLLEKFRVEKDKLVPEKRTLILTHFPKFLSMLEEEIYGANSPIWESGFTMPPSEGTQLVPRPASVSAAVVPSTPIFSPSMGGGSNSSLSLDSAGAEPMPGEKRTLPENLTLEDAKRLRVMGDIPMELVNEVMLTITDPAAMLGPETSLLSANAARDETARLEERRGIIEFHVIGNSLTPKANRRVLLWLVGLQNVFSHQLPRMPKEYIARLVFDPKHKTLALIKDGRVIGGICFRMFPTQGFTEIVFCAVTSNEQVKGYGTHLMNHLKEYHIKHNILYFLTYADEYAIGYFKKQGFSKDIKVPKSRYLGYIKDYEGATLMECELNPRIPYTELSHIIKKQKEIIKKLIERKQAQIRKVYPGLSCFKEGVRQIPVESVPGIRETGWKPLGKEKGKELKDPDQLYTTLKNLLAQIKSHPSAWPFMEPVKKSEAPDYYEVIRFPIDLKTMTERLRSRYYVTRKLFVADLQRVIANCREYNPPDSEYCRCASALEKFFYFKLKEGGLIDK
#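 GCN5L2 (20 nM) in 50mM HEPES pH 7.5, 0.1mM EDTA, 0.01% Tween-20 preincubated 15 min with compounds at room temperature. Reaction started with H3(1-25) 75uM, acetyl-CoA 70uM, ThioGlo1 50uM; CoA-thiol fluorescence (Ex340/Em540) read at 0 and 20 min.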
# * = called active by the depositor; u = inconclusive; & = joins results of further samples; [ ] = remark or other dose. % is scaled to controls: 0 for no effect and ±100 for the full control effect; potency is read from the fitted curve at half-maximal effect. Only part of the results is shown, and most or all hits are left out here.
structure,KAT2A inh
O=C(Cc1ccccc1)NC(c1ccco1)c1c(O)ccc2ccccc12 (stereo unspecified),-1%
CCOC(=O)N/N=C/c1ccc(F)cc1F,-1%
CCOc1ccc(CCNC(=O)c2cc3c(s2)CS(=O)(=O)C3)cc1OCC,-5%
O=C(Nc1ccon1)c1sc2ccccc2c1Cl,-3%
c1ccc(C(CN2CCOCC2)c2ccccc2)cc1,-27%
CC(Oc1ccc(C#N)cc1)C(=O)c1ccc(F)c(F)c1 (stereo unspecified),0%
Cc1nnc(NC(=O)c2ccc3c(c2)OCO3)s1,-14%
CS(=O)(=O)N(Cc1ccccc1)c1ccc(C(=O)NC2CCCCC2O)cc1 (stereo unspecified),-4%
Cc1cccc(NC(=O)Cn2cc(S(=O)(=O)c3ccc(F)cc3)c(=O)c3cc4c(cc32)OCO4)c1,1%
C/C(NCC(C)(C)CN(C)C)=C(/C#N)C(=O)NCc1ccccc1,-3%
CO/N=C/NC(=O)c1c(OC)ccnc1Oc1ccccc1,-4%
N/C(CCS(=O)(=O)c1ccc(Cl)cc1)=N\OC(=O)c1ccccc1C(F)(F)F,-5%
CC1CC(C)CN(C(=O)c2ccc3c(=O)n(Cc4ccc5c(c4)OCO5)c(=S)[nH]c3c2)C1 (stereo unspecified),3%
Cc1nc(CS(=O)(=O)c2ccccn2)sc1C(=O)NNC(=O)c1ccccc1,-7%
CN(C)c1ccc(C(CNC(=O)c2ccccc2)c2c[nH]c3ccccc23)cc1 (stereo unspecified),-13%
COC(=O)[C@@]1(Cc2ccc(OC)cc2)[C@H]2c3cc(C(=O)N(C)C)[nH]c3C[C@H]2CN1C(=O)c1ccccc1,-3%
CN1CCN(C(=O)C2=C[C@H](c3ccc(Br)cc3)C[C@H](OCCCCO)O2)CC1,-3%
COc1ccc(Cl)cc1NC(=O)CN1C(=O)CCS(=O)(=O)c2ccccc21,-1%
O=c1[nH]c(=O)n(C2C[C@H](O)[C@@H](CO)O2)cc1C(F)(F)F (stereo partly specified),4%&-17%
CC(=O)c1ccc(OCC(=O)NCC(c2ccco2)N2CCCCC2)cc1 (stereo unspecified),-7%
Cc1nn(CC(=O)N2CCc3ccccc3C2)c(C)c1[N+](=O)[O-],7%
CCCn1c(CC)nc([N+](=O)[O-])c1S(=O)(=O)c1ccccc1,u
COc1ccc([N+](=O)[O-])cc1N(CC(O)Cn1nnc2ccccc21)S(=O)(=O)c1ccc(C)cc1 (stereo unspecified),-5%
COc1ccc(S(N)(=O)=O)cc1C(=O)OCC(=O)Nc1sccc1C#N,-4%
O=C(NCCSc1ccc(Cl)cc1)c1ccc(CN2CCOCC2)cc1,-8%
Cc1cc(C)n2nc(CNC(=O)c3cccc(N(C)C)c3)nc2n1,-4%
CCCc1cc(=O)oc2cc(OCC(=O)Nc3ccc(CN4CCOCC4)cc3)c(Cl)cc12,-19%
O=c1[nH]cnc2scc(-c3cccs3)c12,1%
Cc1ccc(C)c2c1[nH]c1ccc([N+](=O)[O-])cc12,0%
CN(C)C(=O)Cn1nc(-c2ccccc2)c2ccccc2c1=O,2%
COc1ccc(NC(=O)/C(C#N)=C/c2cccnc2)c(OC)c1,-15%
CC[C@@]1(C(=O)OC)N[C@H](CN(C)C(=O)Nc2ccc(OC)cc2)[C@@H]2C(=O)N(Cc3ccccc3)C(=O)[C@@H]21,-3%
Cc1ccnc(NC(=O)C2CCCN(S(=O)(=O)c3cnc[nH]3)C2)c1 (stereo unspecified),-6%
CN(C(N)=S)c1ccccc1,1%
CN(C(=S)Oc1ccc(C(=O)Nc2ccccc2)cc1)c1ccccc1,-13%
O=C(N/N=C\c1cc2c(cc1Cl)OCO2)c1ccc(Br)s1,2%
Cc1cccc(NC(=O)c2ccc(Cl)c(S(=O)(=O)N3CCCCCC3)c2)n1,-5%
Cc1ccc(-c2noc(CCCOc3ccc(Cl)cc3Cl)n2)cc1,-7%
CC1(C)CC(=O)C2=C(C1)Oc1ncn(CCO)c(=N)c1C2c1ccccc1 (stereo unspecified),0%
CC(C)(C)NC(=S)NCc1cccnc1,u
COC(=O)c1cccc(Nc2ncnc3ccc(C)cc23)c1,-9%
COc1ccc(C2=NC(c3ccncc3)=Nc3ccc(OC)cc3N2)cc1,0%
CCN(CC(=O)NCc1ccncc1)S(=O)(=O)c1ccc(OC)cc1,-5%
CCOC(=O)Cc1nnc(Nc2cccc(O)c2)c2ccccc12,2%
O=C(OCc1cc(=O)n2nc(C3CCCCC3)sc2n1)c1ccccc1Cl,-1%
CCCC(c1nnnn1CCc1ccccc1)N1CCC(C(N)=O)CC1 (stereo unspecified),-8%
COc1ccc(OCc2nnc(SCC(N)=O)n2N)cc1,1%
O=S(=O)(/C=C/c1ccccc1)Nc1cccc(S(=O)(=O)NC2=NCCC2)c1,-4%
CCOC(=O)c1cccc(NC(=O)CCn2nc(C)c(S(=O)(=O)N3CCCCC3)c2C)c1,-4%&-3%
CCOc1cc(C(=O)OC(C)C(=O)Nc2ccc(NC(C)=O)cc2)ccc1OCC(=O)N1CCCCC1 (stereo unspecified),0%

# (more compounds)
structure,KAT2A inh
O=S(=O)(c1ccc(NC2CCCc3ccccc32)nc1)N1CCOCC1 (stereo unspecified),-2%
CCCn1c(=O)n(CC(=O)NCC2CCCO2)c(=O)c2c3c(sc21)COC(C)(C)C3 (stereo unspecified),-4%
CCO[C@@H]1OC(C(N)=O)=C[C@H](C2CCCCC2)[C@H]1CCCO,-1%
CCOC(=O)c1c(-c2cccs2)csc1NC(=O)C(C)(C)C,-8%
O=S(=O)(Nc1ccccc1)c1ccc(F)cc1,-6%
C=C1C2(C(=O)Nc3ccc(SC(F)F)cc3)CCC(C2)C1(C)C (stereo unspecified),30%
Cc1ccc(CN2C(=O)c3ccccc3Sc3ccc(C(=O)NCCCN4CCOCC4)cc32)cc1,-7%&-2%
O=C(CC1SC(N2CCCCC2)=NC1=O)Nc1ccc(C(=O)O)cc1 (stereo unspecified),-9%
Clc1ccccc1Nc1nnc(-c2ccncc2)s1,-6%
N/C(Cc1cccs1)=N\OC(=O)COc1ccccc1Cl,-4%
Cc1ccc(-c2nc(CS(=O)CC(=O)NCCN(CC(C)C)CC(C)C)c(C)o2)cc1 (stereo unspecified),-16%
O=C(O)CCNS(=O)(=O)c1ccccc1Br,-19%
CC1=CC2=NC(=O)/C(=C\c3cccn3CCOc3cc(C)cc(C)c3)C(=N)N2O1,-11%
Cc1cccc(OCc2nnc(SCC(=O)Nc3sc(C)c(C)c3C#N)n2C)c1,2%
CCOc1cc(C(=O)N/N=C/C(Br)=C/c2ccccc2)cc(OCC)c1OCC,-13%
COc1ccc(/C=C/C(=O)Nc2ccc(S(=O)(=O)Nc3onc(C)c3C)cc2)cc1OC,-10%
CCC(=O)N1CCc2cc(Br)cc(S(=O)(=O)NCCc3ccc(C)cc3)c21,0%
O=C(NCC1CCCO1)Nc1cccc(Cl)c1 (stereo unspecified),-1%
Cc1ccc(C(=O)Cn2nnc(-c3cccs3)n2)cc1,-10%
O=C(CNS(=O)(=O)c1ccc(Br)cc1Cl)OCC(=O)N1CCCC1=O,-5%
Cc1ccc(NCCC(=O)c2ccc(Cl)cc2)cc1,117%[activator]
Cc1cc(C)n2nc(C(=O)N/N=C/c3ccc(Cl)cc3)nc2n1,-7%
CCCNCC(O)COc1ccccc1C(=O)CCc1ccccc1 (stereo unspecified),-3%&3%&2%
COc1ccc(NC(=O)CSc2nnc(-c3ccc(OC)cc3)s2)cc1,-4%
Cc1ccsc1/C=N\NC(=O)CC(=O)NCc1ccccc1,2%

# Quoted from the listing.
# KAT2A inh with Cc1cccc(OCc2nnc(SCC(=O)Nc3sc(C)c(C)c3C#N)n2C)c1 : 2%
# KAT2A inh with C=C1C2(C(=O)Nc3ccc(SC(F)F)cc3)CCC(C2)C1(C)C (stereo unspecified) : 30%
# KAT2A inh with Cc1ccc(C(=O)Cn2nnc(-c3cccs3)n2)cc1 : -10%

# The list goes on.
structure,KAT2A inh
COc1cc2ccc(=O)oc2c(O)c1OCC=C(C)C,-6%
COc1cc(C(=O)Nc2ccc3c(c2)Cc2cc(NC(=O)c4cc(OC)c(OC)c(OC)c4)ccc2-3)cc(OC)c1OC,-12%
COc1ccccc1NC(=S)NC(C)=O,9%
O=C(CNS(=O)(=O)c1ccc(F)cc1)N1CCN(c2ccccc2)CC1,-15%
Cc1ccccc1NC(=O)c1c2c(nc3ccccc13)CCC2,-15%
Cc1ccc2[nH]c(-c3cccc(F)c3)cc(=O)c2c1,20%[88.6 µM]
Cc1cc(-n2c(SCC(=O)NCc3cccs3)nc3n[nH]c(C)c3c2=N)ccc1Cl,-1%
COc1ccc(/C=N/c2oc(-c3ccccc3)cc2C#N)cc1OC,0%
CC(=O)Nc1ccc(S(=O)(=O)NCC(=O)OCC(=O)c2ccc[nH]2)cc1,0%
CCOC(=O)N1CCN(C(=O)c2nc3ccccc3s2)CC1,-11%
Cc1c(C(=O)N/N=C/c2ccc(N3CCOCC3)cc2)nc2ccccn12,-8%
Cn1c(=O)cc(OCCCC(=O)NCCN2CCN(c3ccccc3F)CC2)c2ccccc21,2%
c1ccc(Nc2ccccc2)cc1,2%
CCCc1nc(NCc2ccccc2)c(C#N)c2c1CCCC2,-5%
Cc1nn(Cc2ccc(Cl)cc2)c(C)c1NC(=O)C(c1ccccc1)c1ccccc1,-5%
O=[N+]([O-])c1cc(-c2ccn[nH]2)ccc1Cl,-7%
CCOC(=O)Cc1c(C)nc2c(-c3ccc(Cl)cc3)c(C)nn2c1C,-4%
CCCCN1C(C(=O)c2ccccc2)=C(OC(=O)CC)c2ccccc2S1(=O)=O,-12%
CC(NC(=O)C1CC12CCC2)c1ccccc1 (stereo unspecified),-10%
COc1ccc(C(=O)N(C)C2CCCN(Cc3ccccc3F)C2)cc1C (stereo unspecified),-18%
CC(=O)c1cccc(N2C(=O)CC(N3CCN(S(=O)(=O)c4ccccc4F)CC3)C2=O)c1 (stereo unspecified),-8%
COc1ccc(CN(C)C(C)C(=O)Nc2ccc(S(=O)(=O)N3CCCCC3)cc2)cc1F (stereo unspecified),-8%
N#CCC(=O)Nc1ccc(C(F)(F)F)cc1N1CCOCC1,2%
O=S(=O)(c1cc(Cl)ccc1Cl)N1CCN(Cc2ccc3c(c2)OCO3)CC1,-8%
CCOC(=O)CSc1cc(=O)n(C)c2cc(Cl)ccc12,40%[activator]

# 5 of the entries above in order of their number in KAT2A inh, descending.
structure,KAT2A inh
COc1ccc(/C=N/c2oc(-c3ccccc3)cc2C#N)cc1OC,0%
Cc1cc(-n2c(SCC(=O)NCc3cccs3)nc3n[nH]c(C)c3c2=N)ccc1Cl,-1%
Cc1nn(Cc2ccc(Cl)cc2)c(C)c1NC(=O)C(c1ccccc1)c1ccccc1,-5%
CC(=O)c1cccc(N2C(=O)CC(N3CCN(S(=O)(=O)c4ccccc4F)CC3)C2=O)c1 (stereo unspecified),-8%
Cc1ccccc1NC(=O)c1c2c(nc3ccccc13)CCC2,-15%

# (further entries)
structure,KAT2A inh
CC1(NC(=O)Nc2cccc3ccccc23)CCS(=O)(=O)C1 (stereo unspecified),-1%
Cc1c(C(=O)N2CCCCC2)sc(N)c1C#N,0%
COc1ccc(CNCc2ccco2)cc1OCc1ccccc1,2%
CN(c1ccccc1)S(=O)(=O)c1ccc(C(=O)NCc2ccc(F)cc2)cc1,-9%
CN(C(=O)c1cccc(NC(=O)C2CCCN(C(=O)OC(C)(C)C)C2)c1)C1CCCC1 (stereo unspecified),0%
Cc1ccc(N2CCN(S(=O)(=O)N3CCOCC3)CC2)cc1C,-5%
CCOC(=O)C1CCCN(C(=O)Cc2ccc(Cl)cc2)C1 (stereo unspecified),-3%
CCCCC(CCCCl)C(=O)Nc1ccccc1 (stereo unspecified),-8%
Cc1ccc2c(=O)cc(C(=O)Nc3ccc(S(=O)(=O)N4CCCCC4)cc3)oc2c1C,-10%
CC(C)NC(=O)Cn1c(=O)c2c(ncn2Cc2ccccc2)n(Cc2ccccc2)c1=O,1%
CC(C)c1ccccc1NC(=O)c1ccccc1NC(=O)C1CCCCC1,-5%
O=C(N/N=C/c1cccc(F)c1)c1csc2c1CCCC2,-11%
Cc1cc(C)cc(Oc2coc3cc(OC(=O)c4cccs4)ccc3c2=O)c1,-4%
CCCCn1c(N)c(N(CC(C)C)C(=O)c2cccc(S(=O)(=O)N3CCCCC3)c2)c(=O)[nH]c1=O,-21%
O=C(C1COc2ccccc2O1)N1CCCCC1 (stereo unspecified),3%
Cn1c(CCN2CCOCC2)nc2cc(NC(=O)COc3ccc(Cl)cc3)ccc21,-8%
CC[C@H](C)[C@H](NC(N)=O)C(=O)Nc1ccc(NC(C)=O)cc1,-3%
Cc1nc2ccc(S(=O)(=O)NCC(=O)N3CCCCC3)cc2s1,-16%
COc1cc(C(C)=O)ccc1Oc1ncnc2c1cnn2-c1cccc(Cl)c1,3%
COc1ccc(-c2nc3n(n2)C(=O)CC(c2ccc(Cl)cc2)S3)cc1 (stereo unspecified),-4%
COc1ccc(C(NC(=O)c2c(F)c(F)c(F)c(F)c2F)c2ccccc2)cc1 (stereo unspecified),u
O=C(NCc1cccnc1)c1ccc(CN2CCc3ccccc3C2)cc1,-1%
COc1ccc(C(=O)OCC(=O)Nc2ccc([N+](=O)[O-])cc2OC)c(O)c1,-5%
COc1cccc(C(=O)Nc2ccc3c(c2)C(=O)N(CC2CCCO2)C3=O)c1 (stereo unspecified),-1%

# Assay outcomes as filed in PubChem BioAssay.
